High-throughput results deposited in PubChem by PCMD.
Calb biofilm kill: mixtures killing C. albicans biofilm. inhibition, % at 7.6 µM. C. albicans biofilm persisters + clotrimazole, fluorescence viability; primary screen in compound mixtures of four per well. 0.02% of 120,000 active;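 active means inhibition above 30.3% in the primary screen of four-compound pools, then above 30% when the compound was retested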;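 further: compounds exposed to preformed 24 h biofilms for 48 h; the number belongs to the whole pool; some results filed as inactive read as strong as hits; inactives centre near 12; 0% = biofilm with clotrimazole alone and 100% = kill control; retested singly at about 60 µM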
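Test system: C. albicans CAF4-2 wild-type biofilms; buffer or medium: RPMI/MOPS medium, pH 7.0; schedule: 24 h biofilm formation, then 48 h compound exposure, 37 °C; detection: Alamar Blue fluorescence; measure: percent inhibition of biofilm viability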
Active calls of the source: *. Some of the compounds tested; the hit share may differ from the screen's.

SMILES	Calb biofilm kill
CC(=O)OC1CC[C@@]2(C)C(CCC3C2CC(=O)[C@@]2(C)C3CC3CC(C)=CC(=O)C32)C1 (some centres not stated)	24
Cc1cc(C)n2nc(C(=O)N/N=C/C=C/c3ccccc3)nc2n1	20
C/C(=N\NC(N)=S)c1cccnc1	10
Cc1ccc2cc(/C=N/NC(=O)c3ccc(F)cc3)c(Cl)nc2c1	9
N#CCSc1nc2ccccc2c(=O)n1CCCC(=O)NCc1ccco1	8
CC(=O)c1c(C)cc(C)c(CSc2nc(C)cc(=O)[nH]2)c1C	11
O=C(NCC1CCCO1)/C(=C\c1cccs1)NC(=O)c1ccccc1 (configuration not stated)	2
CCOC(=O)N1CCN(Cc2nc(CC3CC3)no2)CC1	20
COC(=O)CCN1CCc2cc(N=Nc3ccc([N+](=O)[O-])cc3)ccc21	2
NNC(=O)c1ccc2nc(-c3ccc(Br)cc3)cn2c1	18
COc1cc(CNc2ccc(O)cc2)cc(Br)c1OCc1ccccc1	11
CC(C)(C)NC(=O)C(=O)NN=C1CCCCCCC1	1
CC(=O)Nc1cccc(NC(=O)C(F)(F)F)c1	13
Cc1ccc(S(=O)(=O)NN=C2CCC(C(C)(C)C)CC2)cc1[N+](=O)[O-] (configuration not stated)	10
CCOc1ccc(-c2nc(CN(Cc3ccccc3)C[C@@H]3CCC(=O)N3)c(C)o2)cc1	-1
CCOC(=O)NN1C(=O)c2ccccc2NC1c1ccccc1O (configuration not stated)	14
COc1ccc(-c2csc(N3CCN(C(=O)c4ccccc4)CC3)n2)cc1	13
CC(C(=O)Nc1ccc(S(N)(=O)=O)cc1)N1CCc2ccccc21 (configuration not stated)	7
O=C(Nc1cccc(C(F)(F)F)c1)c1cnccn1	6
CCOC(=O)NNc1ccccc1	20
C=CCNC(=O)COC(=O)c1ccc(Cl)c(S(N)(=O)=O)c1	11
O=C(COc1ccc([N+](=O)[O-])cc1)Nc1ccc(CN2CCOCC2)cc1	8
Cc1ccc(/C=N/Nc2ccc(C(=O)O)cc2)o1	8
Fc1ccccc1Cc1ccc(Cl)nn1	4
COC(=O)c1ccc(CC(=O)c2nc3ccccc3s2)cc1	25
CCn1cc(C(=O)Nc2cccc(C)c2)c(=O)c2ccc(C)nc21	9
CCC(C)N=C1CC(C)(C)CC(=O)/C1=C(/O)Cc1ccccc1 (configuration not stated)	6
C/C(=N\NC(=O)c1cccc(S(=O)(=O)Nc2ccccc2Cl)c1)c1ccco1	16
Cc1ccccc1NC(C)C(=O)N/N=C/c1c[nH]c2ccccc12 (configuration not stated)	16
CCc1ccc(NC(=O)CSc2nc(CSc3ccc(C)cc3)cc(=O)[nH]2)cc1	9

Part of the list above in a different format.
> C/C(=N\NC(=O)c1cccc(S(=O)(=O)Nc2ccccc2Cl)c1)c1ccco1
  Calb biofilm kill: 16

> C=CCNC(=O)COC(=O)c1ccc(Cl)c(S(N)(=O)=O)c1
  Calb biofilm kill: 11

> CCOC(=O)NN1C(=O)c2ccccc2NC1c1ccccc1O (configuration not stated)
  Calb biofilm kill: 14

> CC(C(=O)Nc1ccc(S(N)(=O)=O)cc1)N1CCc2ccccc21 (configuration not stated)
  Calb biofilm kill: 7

Remaining list, next part.
SMILES	Calb biofilm kill
O=C(NC(=S)NCCC1=CCCCC1)c1cccnc1	32
Cc1onc(-c2c(F)cccc2Cl)c1C(=O)c1ccccc1	26
C=CCNC(=O)COc1ccc(S(=O)(=O)Nc2ccc(OCC)cc2)cc1	15
Cc1ccc(/C=N/NC(=O)CN(Cc2ccccc2)S(=O)(=O)c2ccc3c(c2)OCCO3)cc1	11
CCN1C(=O)/C(=C\c2ccncc2)SC1=Nc1ccc(C)c(C)c1	5
COc1ccc2c(c1OC)C(=O)N1N=C(c3ccc(Br)cc3)CC21 (configuration not stated)	7
O=C(C1=C[C@H](c2ccccc2)C[C@H](OCc2ccc(CO)cc2)O1)N1CCN(Cc2ccc3c(c2)OCO3)CC1	19
Cc1ccc2c(c1)c1c(n2CC(O)CN2CCC(C)CC2)CCCC1 (configuration not stated)	8
Cc1ccc(S(=O)(=O)[N-]c2nc3ccccc3nc2-[n+]2cc(C)cc(C)c2)cc1	11
CC(C)NC(=O)CN1CCN(Cc2nc(-c3cccs3)no2)CC1	17
C[C@@H]1NC(=O)c2cc([N+](=O)[O-])cc(I)c2NCC[C@@H](C(N)=O)NC(=O)[C@H](CC(N)=O)NC1=O	5
Nc1c2c(nc3ccccc13)CCCC2	10
COc1cc(/C=C/C(=O)Nc2ccc(C)cc2)cc(OC)c1OC	4
COc1ccccc1NCCC(=O)OCC(=O)NC1CC1	8
COc1ccc2nc(NC(=O)CCNC(=O)c3ccccc3Cl)sc2c1	36

7 entries from above, bar-delimited.
Compound | Calb biofilm kill
Fc1ccccc1Cc1ccc(Cl)nn1 | 4
COC(=O)c1ccc(CC(=O)c2nc3ccccc3s2)cc1 | 25
CCn1cc(C(=O)Nc2cccc(C)c2)c(=O)c2ccc(C)nc21 | 9
CCC(C)N=C1CC(C)(C)CC(=O)/C1=C(/O)Cc1ccccc1 (configuration not stated) | 6
C/C(=N\NC(=O)c1cccc(S(=O)(=O)Nc2ccccc2Cl)c1)c1ccco1 | 16
Cc1ccccc1NC(C)C(=O)N/N=C/c1c[nH]c2ccccc12 (configuration not stated) | 16
CCc1ccc(NC(=O)CSc2nc(CSc3ccc(C)cc3)cc(=O)[nH]2)cc1 | 9

Later entries:
SMILES	Calb biofilm kill
CCN1CCN(CC(=O)c2ccc(OC)cc2)CC1	7
COC(=O)c1ccc(CSc2nc3c(cnn3-c3ccc(C)c(C)c3)c(=O)[nH]2)o1	-1
Cc1ccc(C(=O)NS(=O)(=O)c2ccc(C)cc2)cc1	15
CC(C)[C@H](NC(=O)c1ccccc1)C(=O)OCC(=O)NCCC1=CCCCC1	17
Cc1[nH]c2ccccc2c1C(=O)COC(=O)c1c(-c2c(F)cccc2Cl)noc1C	12
CCOC(=O)Nc1n[nH]c(NC(=O)OCC)c1[N+](=O)[O-]	9
COc1ccccc1N1C(=O)C2C(C(=O)c3ccccc3)=NN(c3ccccc3)C2C1=O (configuration not stated)	17
CC12CCC(C/C1=N/NC(=O)COc1ccccc1Cl)C2(C)C (configuration not stated)	-3
CCOc1c(O)ccc(C2NC(=O)N(C)C(C)=C2C(=O)OC)c1[N+](=O)[O-] (configuration not stated)	14
CC(C)N(Cc1nc(-c2ccc3c(c2)OCO3)no1)Cc1nccn1C	15
COc1ccc(CCC(=O)NCCc2nc3ccccc3[nH]2)cc1	12
Cc1cccc(NC(=O)CSc2nnc(CNC(=O)c3ccc(S(=O)(=O)N(C)C)cc3)n2-c2cccc(C)c2)c1	8
CCOC(=O)C1=C(CC)Nc2ccccc2N/C1=N\S(=O)(=O)c1ccc2ccccc2c1	6
Cc1ccsc1/C=N/NC(=O)C1C(=O)NCC1c1ccccc1 (configuration not stated)	6
COc1ccc(C(=O)NC(=S)Nc2cccc(NC(=O)c3ccco3)c2)cc1[N+](=O)[O-]	10
O=C(Cc1cccs1)Nc1ccc(S(=O)(=O)N2CCCC2)cc1	10
CCc1n(CC(O)COCc2ccccc2)c2ccccc2[n+]1C (configuration not stated)	12
O=c1[nH]ncc(NCCc2ccccc2)c1Cl	21
O=C(COC(=O)c1cc(F)c(F)cc1Cl)NC1CC1	5
COc1ccc(C2(O)CN(c3ccccc3)C3=[N+]2CCS3)cc1OC (configuration not stated)	7
Cc1ccsc1/C=C1/C(=O)NN(c2ccccc2)C1=O	16
CCCCc1nc(SCc2ccc([N+](=O)[O-])cc2)n[nH]1	3
Cc1ccc2nc(SCC3CCCCO3)[nH]c2c1 (configuration not stated)	17
Oc1c(Br)cc(Br)cc1C=NCc1ccccc1	3
CC(C)(C)NC(=O)c1cc(Cl)ccc1[N+](=O)[O-]	13
CCOC(=O)C(=NC(C)CC)NNc1ccc(Br)cc1 (configuration not stated)	11
C=CCn1c(O)c(N=NC(=S)Nc2ccc(OC)cc2)c2ccccc21	15
CCNC(=O)/C=C/c1ccccc1[N+](=O)[O-]	4
O=C(O)CCN(Cc1ccccc1)S(=O)(=O)c1ccccc1Cl	27
Cc1cccc(CSc2nnc([C@@H]3CCCN3C(=O)OC(C)(C)C)o2)c1	11
Cc1ccc(/C=N/NC(=O)C(=O)N/N=C/c2ccc(C)o2)o1	9
O=[N+]([O-])c1ccc(N2CCN(CC(O)COc3ccccc3)CC2)cc1 (configuration not stated)	3
Cc1ccc(/C=C2\Oc3c(ccc(O)c3CN3CCN(C)CC3)C2=O)cc1	25
Cc1cc(C)c2nc(-n3nc(C)cc3N)cc(C)c2c1	13
Cc1cc(C)c(NC(=O)CCCSc2nnc(N)s2)c(C)c1	9
CCC(C(=O)OCC(=O)Nc1c(Cl)cc(Cl)cc1Cl)c1ccccc1 (configuration not stated)	14
NC(=O)CC[C@H](NC(=O)OCc1ccccc1)C(=O)OCc1ccc(Cl)cc1	5
CN=c1scc(-c2ccccc2F)n1/N=C(\C)c1cccnc1	16
COc1ccc2[nH]c(-c3ccc(C)cc3)cc(=O)c2c1	6
C[C@]1(C(=O)NCCc2c[nH]c3ccccc23)C=C[C@@H](Cc2ccccc2)N1C(=O)c1ccccc1	7
CCN(Cc1ccccc1)C(=O)CCc1nnc(CCCc2ccccc2)o1	-18
O=C(CSc1ccc(C(F)(F)F)cn1)Nc1ccccc1	19
NNC(=S)Nc1ccc(Cl)cc1	11
CC(=O)Nc1ccc(N2CCC(C)CC2)c([N+](=O)[O-])c1	23
CCCN1Cc2cccc(C(=O)NC(CC(=O)OCC)c3ccc(OCC)c(OC)c3)c2C1=O (configuration not stated)	15
Cc1ccc(NC(=S)N(CCN2CCOCC2)Cc2ccccc2F)cc1Cl	7
O=C(CN1C(=O)S/C(=C\C=C\c2ccccc2)C1=O)N1CCOCC1	10
Cc1nc([N+](=O)[O-])c(NCCCO)n1Cc1ccccc1	-2
O=C(CCn1c(=O)oc2ccccc21)N(Cc1ccccc1)c1ccccc1	16
Cc1ccc(CO/N=C/c2c(O)cc(C)oc2=O)cc1	3
O=C(Nc1ccccn1)c1cc(-c2cccnc2)nc2ccc(Br)cc12	16
O=C(CN1CCCC1)Nc1ccc(OCc2ccccc2)cc1	14
NC1=NC(c2ccccc2)=NC1(NC(=O)c1ccccc1)C(Cl)Cl (configuration not stated)	28
O=C(O)c1ccccc1C(=O)Nc1ccc(Oc2cccc(C(F)(F)F)c2)nc1	14
OC(CNC1Cc2ccccc2C1)COc1ccc(F)cc1 (configuration not stated)	0
O=C(O)c1ccccc1C(=O)NC1Cc2ccccc2C1	5
C=CCN1C(=O)/C(=C2/Sc3ccc(OC)cc3N2C)SC1=Nc1ccccc1	20
O=[N+]([O-])c1ccc2c(c1)nc1n2CCN(CC2CCCO2)C1 (configuration not stated)	14
COc1ccc(C(=O)Nc2ccc(CN3CCCCC3)cc2)cc1	21
Cc1ccc(SCc2cc(=O)n3ccsc3n2)c(C)c1	16

Look-ups from above.
Reading for OC(CNC1Cc2ccccc2C1)COc1ccc(F)cc1 (configuration not stated) in Calb biofilm kill: 0
Reading for O=C(CN1C(=O)S/C(=C\C=C\c2ccccc2)C1=O)N1CCOCC1 in Calb biofilm kill: 10
Reading for O=C(Nc1ccccn1)c1cc(-c2cccnc2)nc2ccc(Br)cc12 in Calb biofilm kill: 16
Reading for O=C(CN1CCCC1)Nc1ccc(OCc2ccccc2)cc1 in Calb biofilm kill: 14
Reading for O=C(O)c1ccccc1C(=O)NC1Cc2ccccc2C1 in Calb biofilm kill: 5

New compounds follow
SMILES	Calb biofilm kill
Cc1ccc(S(=O)(=O)CCC(=O)OCC(=O)NCc2ccc(Cl)cc2)cc1	18
Cc1c(C(=O)Nc2c(F)cccc2F)sc2ncnc(N3CCN(c4ccccc4)CC3)c12	19
CN1CCC(OC(=O)c2ccc(Cl)cc2Cl)CC1	22
Nc1cc(N2CCCC2)c(Cl)cc1[N+](=O)[O-]	16
CC(C)NCC(O)COc1ccc(CCOCC2CC2)cc1 (configuration not stated)	20
CC(=O)c1cccc(N(CC(=O)Nc2ccccc2F)S(C)(=O)=O)c1	16
N/C(COc1cc(Cl)cc(Cl)c1)=N\O	20
CCC(=O)OCCNc1cc(Sc2nc3ccccc3[nH]2)c2nonc2c1[N+](=O)[O-]	16
O=C(NC(NC(=S)Nc1ccccc1C(=O)O)C(Cl)(Cl)Cl)c1ccco1 (configuration not stated)	0
Cn1cnnc1SCC(=O)N1CCN(C(=O)c2ccco2)CC1	18
COc1c2ccoc2nc2c(OC)c(OCC(OC(C)=O)C(C)(C)O)ccc12 (configuration not stated)	18
CCc1ccc(N2C(=O)CC(N3CCN(Cc4ccc5c(c4)OCO5)CC3)C2=O)cc1 (configuration not stated)	14
CCOC(=O)c1cnc2c(-c3ccccc3)cnn2c1C	-8
CCCCN=C1NN=C(c2ccc(C)c(C)c2)CS1	7
CC(C)(C)n1nnnc1SCC(=O)Nc1nn(-c2ccccc2)nc1C(N)=O	12
O=C(Nc1ccc(-c2csc(Nc3ccccc3)n2)cc1)c1cccc(C(F)(F)F)c1	17
CCn1cc(C(=O)O)c(=O)c2cc(F)c(N/N=C/c3ccccc3)cc21	9
CC(=O)Nc1ccc(Sc2ccccc2C(=O)Nc2ccc(F)cc2)cn1	17
CCNS(=O)(=O)c1ccc(NC(=O)CC(C)c2ccccc2)cc1 (configuration not stated)	19
Cc1ccccc1NS(=O)(=O)c1cc(S(C)(=O)=O)ccc1C	5
CCCCCCC(=O)Oc1cccc(N2C(=O)C3CCCCC3C2=O)c1 (configuration not stated)	16
O=C1NC(=Nc2ccc(O)cc2)S/C1=C\C=C\c1ccco1	23
CCOc1ccc(/C=C2\SC(=S)NC2=O)cc1OC	22
FC(F)(F)c1ccc(Cl)c(-n2c(-c3cc(C4CC4)[nH]n3)n[nH]c2=S)c1	2
O=C(NC(CO)C(O)c1ccc([N+](=O)[O-])cc1)C(Cl)Cl (configuration not stated)	-9
S=C(Cc1ccc(Cl)cc1)N1CCOCC1	8
COC(=O)c1sccc1Oc1ccc(Cl)cc1N1C(=O)CCC1=O	8
COc1ccc(-n2ncc3c(SCC(=O)N4CCN(c5ccccc5OC)CC4)ncnc32)cc1	-10
Cc1cc(C(=O)N2CCCC(CCC(=O)N3CCN(c4ccccn4)CC3)C2)c(C)o1 (configuration not stated)	15
